ugtP null kill = growth inhibition of S. aureus ugtP deletion strain. actives 0.54% (n = 330,000). AID 1259309. growth inhibition, % (no concentration beside the values). S. aureus RN4220 ugtP deletion, OD600 growth, 16 h; some inactives read as strong as hits;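 active = z-score under -3 and OD600 up to 0.15 on both plates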;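 also: plate controls were untreated wells for no effect and antibiotic for full effect; wells of about 80 µL received 100 nL stock; the first replicate is given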
Mtb hypoxia rep = Mtb hypoxia fluorescent reporter inhibition | M. tuberculosis hypoxia-regulated fluorescent reporter, fluorescence | AID 1159583 | fluorescence inhibition, % (concentration not given with the values) | actives 0.1% (n = 300,000);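 active = 35 to 45% if threefold the growth effect, above 45% if 1.5-fold the growth effect; inactive = the rest, general growth blockers included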;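 also: wells of about 50 µL received 100 nL stock; 0% = vehicle wells and 100% = reference inhibitor wells; whole bacteria with a GFP reporter of the hypoxia response; strong numbers were not always called active; many hits fall short of the cut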
PrP 5UTR inh = inhibition of PrP 5' UTR reporter expression; cell-based PrP 5' UTR mRNA reporter, plate reader; inhibition, % (test concentration not listed); actives 0.35% (n = 340,000);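 active = every replicate at 50% or more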;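 also: 0 = median of the neutral control wells; tested in H4 reporter cells; numbers are from one replicate; inactives centre near -14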
Sa RN4220 lethal = S. aureus RN4220 growth inhibition; OD600, 16 h; inhibition, % (no concentration beside the values); actives 0.33% (n = 330,000); AID 1259311;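 active = z-score of -3 or lower and OD600 up to 0.18 on both plates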;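 also: plate controls were untreated cells for no effect and reference antibiotic for full effect; stock transfer was 100 nL into about 80 µL; one replicate is shown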
Bead autofluor = counter-screen for toxin protease inhibitors: compound fluorescence. compound autofluorescence counterscreen, microsphere flow cytometry; active compounds read high. fluorescence intensity (test concentration not listed). actives 3.1% (n = 360,000);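 active = at least 3 SD above the mean of all compounds, about 16000 in these data; inconclusive = too few beads counted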;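 also: 100 nL of 1 mM stock went into each well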
BJeLR lethal = BJeLR cell viability loss. BJeLR (HRASV12) viability, CellTiter-Glo ATP luminescence, 48 h; reference of the scale not given here. inhibition, % (test concentration not listed). actives 0.17% (n = 300,000);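 active = replicate mean above 50%; inconclusive = above 50% but judged a plate artefact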;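 also: 50 nL library stock added to about 25 µL; numbers are from one replicate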
Mtb hypoxia rep growth = further read-out of Mtb hypoxia rep, marked with its call; growth inhibition, %; measured here: M. tuberculosis growth (absorbance);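 0% = vehicle and 100% = reference antibiotic; read after six days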
An asterisk follows results filed as active; ? = inconclusive; . = no result given.

mol	Bead autofluor	Mtb hypoxia rep	Mtb hypoxia rep growth	PrP 5UTR inh	BJeLR lethal	ugtP null kill	Sa RN4220 lethal
CCOC(=O)Nc1ccc(S(=O)(=O)Nc2cc(C)nc(C)n2)cc1	15454	8	8	-17	-3	6	4.3
Cc1onc(-c2ccc(Cl)cc2Cl)c1C(=O)/C=C/N(C)C	4109	3	1	-2	10	15	4.6
NC(=O)c1cnn(-c2cc(Oc3ccccc3)ncn2)c1N	3365	.	.	-49	6	.	.
O=C(CSc1nccc(-c2ccc(Br)cc2)n1)NCCc1ccccc1	8291	4	8	-16	-7	-1	3.7
CN(C)CCCNC(=O)C=Cc1ccc2c(c1)OCO2	.	6	5	.	.	-2	2.8
COc1ccc(NC(=O)C2C3C=CC(O3)C2C(=O)O)cc1 (stereo unspecified)	3869	3	-3	-16	0	12	2.6
COCCCNC(=O)C[C@H]1C[C@H](C(=O)N2CCOCC2)[C@@]2(CCC3CCCC3)c3[nH]c4ccc(Cl)cc4c3CCN2C1=O	3526	-2	2	-18	.	4	2.7
COCCNC(=O)C(c1ccncc1)N(C(=O)c1sc(C)nc1C)c1cccc(C)c1 (stereo unspecified)	3397	11	5	-31	4	8	4.0
Cc1ccc(C(=O)N/N=C/C=C/c2ccccc2)o1	4412	.	.	-10	3	.	.
COc1ccc(NC(=O)CS(=O)(=O)c2ccccc2Cl)cc1	3918	8	-1	-5	-4	9	-2.0
O=C(Nn1c(SCc2ccc(F)cc2)nc2ccsc2c1=O)c1ccccc1	1941	7	0	-38	-2	76	83*
Cc1ccc(CNC(=O)C(=O)NCC2OCCN2C(=O)c2ccc3c(c2)OCO3)cc1 (stereo unspecified)	4452	13	-2	-10	29	-69	3.7
COC(=O)c1ccccc1NC(=O)CN(C)S(=O)(=O)c1ccc(OC)cc1	6440	1	5	-21	-9	3	5.9
CCOc1cc(C(=S)N2CCOCC2)ccc1OS(=O)(=O)c1ccc(C)cc1	3893	2	-5	-9	-7	6	9.7
CC=C(C)C(=O)OC1Cc2c(ccc3ccc(=O)oc23)OC1(C)C (stereo unspecified)	.	10	11	.	.	-11	1.6
COc1ccc(C(=O)N=c2sccn2C)cc1	4841	15	0	-44	15	6	6.0
O=C(NCc1nc2ccccc2[nH]1)C1=C[C@H](C2CCCCC2)C[C@H](OCCCCO)O1	3522	.	.	2	-7	.	.
CCOC(=O)c1sc(NC(=O)c2ccc(S(=O)(=O)N3CCOCC3)cc2)nc1-c1ccccc1	2076	5	6	-5	-3	6	-5.5
CCCn1c2ccc(F)cc2c2nnc(SCCN3CCCCC3)nc21	3980	15	-2	-46	-2	3	-2.2
CCCCN(C(=O)NC(=O)Nc1cccc(C)c1C)S(C)(=O)=O	10531	7	0	-64	0	14	0.8
CC(C)(C)c1ccc(NC(=O)c2ccsc2)cc1	4612	2	5	.	-22	1	5.6
COc1ccc(CNC(=O)CSc2nnc3nc(C)cc(C)n23)cc1OC	6403	14	2	54	-1	4	4.4
COCCNC(=O)/C=C/c1c(Cl)cccc1Cl	2261	10	15	-11	-8	0	-1.7
CCCC(=O)Nc1cccc2c1CCCC2	3416	6	1	1	2	-6	3.4
COc1c(Cl)cc(Cl)cc1C=NNC(=O)c1nnn(-c2nonc2N)c1CN1CCC(C)CC1	.	7	-3	.	.	-15	17
N#CC(=NNc1ccc(Cl)cc1)C(=O)c1ccccc1	.	-53	26	.	.	99*	100*
CC(=O)Oc1ccccc1N(C(C)=O)S(=O)(=O)c1ccc2ccccc2c1	4346	6	2	-24	2	1	8.6
CCN(CC)c1ccc(N=Cc2c(O)n(-c3ccc(OC)cc3)c(=O)[nH]c2=O)cc1	3461	.	.	-9	9	-1	-5.3
Cn1c(=O)n(Cc2ccccc2F)c(=O)c2c1nc1n2CCN1Cc1ccco1	4179	11	0	-4	6	1	2.4
CC1(C)Cc2c(c(=S)nc(-c3ccccc3)n2CCOCCO)CO1	3193	4	-1	-11	4	0	4.6
CC(=O)N1CCN=C1SCc1ccccc1Cl	5642	.	.	-16	0	6	4.0
CC(=O)Nc1ccc2[nH]c(C)c(CC=C(Cl)Cl)c(=O)c2c1	4194	10	13	-9	-3	0	-1.7
Cc1ccccc1-c1noc(CCC(=O)NCc2ccco2)n1	4405	0	-3	-17	4	0	2.2
CSc1ccc(Cl)c(C(=O)NCc2ccco2)c1	2738	.	.	6	-16	6	-1.2
Cc1ccc(NC(=O)Cc2noc3ccccc23)nc1	9501	6	6	-29	3	4	4.9
O=[N+]([O-])c1ccc(S(=O)(=O)NN=Cc2ccc(Cl)c(Cl)c2)cc1	3348	8	9	-9	.	-14	10
CN(C)CCN(C)Cc1c2ccccc2c(CN(C)CCN(C)C)c2ccccc12	2999	4	2	-8	-7	10	-1.2
CCC(C)(C)NC(=O)C(c1cccc(OC)c1OC)N(Cc1ccccc1)C(=O)CCC(=O)Nc1cc(C)on1 (stereo unspecified)	3625	-5	10	-15	-4	-1	0.0
COc1ccc(N2CC(NS(=O)(=O)c3cccs3)CC2=O)cc1 (stereo unspecified)	.	7	8	-8	3	6	3.7
Cc1cc(Nc2ccc3c(c2)OCCO3)c2cccc(C)c2n1	8011	0	0	-17	8	1	1.4
CCC(=O)n1nc(-c2cccnc2)nc1NCc1ccc(OC)cc1	3514	.	.	-7	-5	1	4.0
Clc1ccc(C=NC23CN4CN(CN(C4)C2)C3)cc1	3524	.	.	-3	0	3	0.6
Cc1ccccc1Cn1cc(NC(=O)c2nn(C)cc2Cl)cn1	9933	9	11	-17	3	3	-0.2
Cc1cccc(N2C(=O)C(Oc3ccc(Cl)cc3Cl)C2C(=O)O)c1C (stereo unspecified)	2398	6	8	-13	-5	-1	5.5
CCOCCCNC(=S)N1C2CCC1CC(NC(=O)NC1CCCCC1)C2 (stereo unspecified)	10155	15	4	-18	-1	5	5.1
Cc1c(C(=O)N2CCN(CCc3ccccn3)CC2)oc2ccc(F)cc12	4696	11	8	-20	1	4	0.1
Cc1ccc(-c2c(C#N)c(N)nc3c2CCCCCC3)o1	9164	17	7	-5	-8	12	8.2
O=C(C1CCN(Cc2ccc(F)cc2)CC1)N(CCO)Cc1ccccc1	9390	0	-6	-26	-6	7	1.5
COc1ccc(C(CCN2CCCC(C)C2)c2c(OC)cc(OC)c3c2OC(=O)CC3c2cc(OC)c(OC)c(OC)c2)cc1 (stereo unspecified)	3962	.	.	-4	10	.	.
O=C(NC1CC1)C1CCN(c2ccc(S(=O)(=O)N3CCOCC3)cc2Cl)CC1	22681*	1	-2	2	-11	0	3.5
O=C(CSc1cccc2cccnc12)Nc1ccccc1F	3099	0	-5	-5	-5	13	-0.6
COc1ccc([C@@H]2C[C@@H](c3ccccc3)Oc3cc(OC)c(OC)c(OC)c32)cc1	3863	.	.	-18	2	.	.
COc1ccc(OCCn2c(NC(=O)c3ccco3)nc3ccccc32)cc1	2868	.	.	-12	4	-2	1.3
Clc1ccc(CSc2nnc(/C=C/c3ccccc3)o2)cc1	5337	.	.	-8	1	-12	1.2
COc1ccc(NC(=O)CNCCC2=CCCCC2)cc1	5123	4	-3	-15	8	4	3.9
CC(=O)c1ccccc1NC(=O)c1ccc2c(c1)NC(=O)C(C)S2 (stereo unspecified)	4718	11	2	-62	-21	-1	1.0
Cc1ccc(S(=O)(=O)N2CCN(C(=O)c3cc(=O)[nH]c4ccccc34)CC2)c(C)c1	3452	6	2	-6	6	-1	0.4
CCn1cnc2c1c(=O)n(Cc1cccc([N+](=O)[O-])c1)c(=O)n2Cc1ccccc1	3504	2	0	-29	-5	0	-3.0
CCN(Cc1ccccc1)S(=O)(=O)c1c(N)n(C)c(=O)n(C)c1=O	5826	3	9	-6	4	2	2.2
CCN(Cc1ccccc1)C(=O)c1nn(-c2ccc(OC)cc2)c(=O)c2c1c1ccccc1n2C	2031	10	-2	-13	0	-8	6.1

Two neighbouring entries from above, for reference:
mol	Bead autofluor	Mtb hypoxia rep	Mtb hypoxia rep growth	PrP 5UTR inh	BJeLR lethal	ugtP null kill	Sa RN4220 lethal
Clc1ccc(C=NC23CN4CN(CN(C4)C2)C3)cc1	3524	.	.	-3	0	3	0.6
Cc1ccccc1Cn1cc(NC(=O)c2nn(C)cc2Cl)cn1	9933	9	11	-17	3	3	-0.2

Next entries.
mol	Bead autofluor	Mtb hypoxia rep	Mtb hypoxia rep growth	PrP 5UTR inh	BJeLR lethal	ugtP null kill	Sa RN4220 lethal
O=C(COc1ccc(Cl)cc1)NCCS(=O)(=O)N1CCN(c2ccccc2F)CC1	6454	5	3	-4	4	1	-0.6
CCOc1ccc(NC(=O)C2CCCN(S(=O)(=O)c3ccc4c(c3)CCCN4C(C)=O)C2)cc1 (stereo unspecified)	4578	9	-3	-2	-3	5	3.3
CCOc1cc(NC(=S)NCCCN2CCOCC2)c(OCC)cc1NC(=O)c1ccccc1	4214	-4	-7	-15	1	4	2.3
Clc1ccc2c(c1)C(c1ccccc1Cl)=NCc1nnc(N3CCN(CCSc4ccccc4)CC3)n1-2	2248	.	.	-8	1	.	.
COc1cc(C=NNC(=O)CCn2c3ccccc3c3ccccc32)ccc1O	.	19	5	.	.	-6	0.4
CN(C)c1cc(Nc2cccc(O)c2)c([N+](=O)[O-])c2nonc12	4441	-9	6	5	12	12	3.5
O=C(COC(=O)c1cccs1)NCc1ccco1	2887	1	3	-7	2	-7	-19
CCN(CC(=O)NCc1ccc(Cl)cc1)C(=O)CSc1cccc(C(F)(F)F)c1	?	6	7	11	-2	-9	-6.7
Cc1nc2ccccc2n1/N=C/c1ccc([N+](=O)[O-])s1	2688	.	.	-29	11	.	.
N#Cc1nc(Cc2cccc3ccccc23)oc1NCCN1CCCCC1	10642	0	6	-14	0	1	2.7
Cc1ccccc1C(=O)Nc1nnc(-c2ccc(C(C)(C)C)cc2)s1	2206	2	0	-24	7	0	4.0
COC(=O)C1CN(S(=O)(=O)c2cc(OC)ccc2OC)CCS1 (stereo unspecified)	3649	-1	2	-24	-8	-6	-6.0
CC1CC(c2ccccc2)n2nc(NC(=O)c3cccs3)nc2N1 (stereo unspecified)	2724	.	.	-22	4	3	-1.4
CCN(CC(=O)Nc1ccc2c(c1)OCCO2)C(=O)c1cccc(S(=O)(=O)N2CCOCC2)c1	9238	-11	2	-4	8	-2	1.6
O=C(CSc1nccc2ccccc12)N1CCN(c2ccccn2)CC1	5576	-7	-2	-32	0	8	3.6
COc1ccc(NC(=O)N(C)C[C@H]2Oc3c(NC(=O)NC(C)C)cccc3C(=O)N([C@H](C)CO)C[C@@H]2C)cc1	3077	7	8	-20	.	7	-0.6
CCOC(=O)c1nnn(-c2nonc2-n2cccc2)c1C	4127	.	.	-4	1	12	2.9
CC(=O)Oc1ccc(N2C(=O)C3C4C=CC(C5CC45)C3C2=O)cc1[N+](=O)[O-] (stereo unspecified)	2615	4	-2	-14	1	10	3.4
COc1cccc(C2CC(=O)Nc3cc(OC)c(OC)c(OC)c32)c1OC (stereo unspecified)	2665	.	.	-1	-2	5	-1.5
O=C(NCc1ccccc1)/C(=C/c1ccc([N+](=O)[O-])cc1)NC(=O)c1ccco1	3888	-13	2	-16	-1	8	5.8
CC(NC(=O)c1ccccc1N)c1ccccc1 (stereo unspecified)	3948	14	0	-32	7	8	3.5
COc1cccc(-n2c([S-])c(C(=O)Nc3ccc(S(=O)(=O)N4CCOCC4)cc3)[n+]3cc(C(N)=O)ccc23)c1	5037	5	-2	0	5	0	1.7
CC(/C=N/NC(=O)c1cc(-c2cccnc2)nc2c1c(C)nn2-c1ccccc1)=C\c1ccccc1	1932	.	.	-20	-13	.	.
S=C1SCN(Cc2cccnc2)CN1Cc1cccnc1	4459	.	.	-8	46	.	.
COCCn1c(SCC(=O)Nc2cc(C)cc(C)c2)nnc1C(C)C	3518	0	2	-2	-7	7	6.6
O=C(c1ccc2c(=O)n(Cc3ccc4c(c3)OCO4)c(=S)[nH]c2c1)N1CCCCC1	22165*	14	6	-35	10	-6	1.6

High-throughput results deposited in PubChem by several laboratories.
